NOMO-1 viab: NOMO-1 AML cell viability reduction, primary screen, STK33 inhibitor project, CellTiter-Glo luminescence | inhibition, % (concentration not given with the values) | AID 2330, 2010 | 37,000 compounds, 7.5% hits | NOMO-1 AML viability, 72 h;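 active = most replicates above 80%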;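 also: wells of about 30 µL received 25 nL stock; 0% = median of vehicle wells and 100% = reference inhibitor level; the first replicate is given; inactives centre near 10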
* hit, by the source's call. A portion of the library; the hit share may differ from the screen's.

SMILES | NOMO-1 viab
Cn1c(SCC(=O)Nc2ccc(Br)cc2Cl)nnc1-c1cccc([N+](=O)[O-])c1 | -1.2
C[C@@H]1CCCCO[C@H](CN(C)CC2CCCCC2)[C@@H](C)CN([C@H](C)CO)C(=O)c2cc(NS(=O)(=O)c3cn(C)cn3)ccc2O1 | 3.3
C[C@@H]1CN([C@H](C)CO)C(=O)Cc2cc(NC(=O)Cn3cnnn3)ccc2O[C@H]1CN(C)Cc1ccc2c(c1)OCO2 | -17.7
C[C@@H]1CN([C@H](C)CO)C(=O)c2cccc(NS(=O)(=O)c3cn(C)cn3)c2O[C@H]1CN(C)Cc1ccc(Oc2ccccc2)cc1 | -2.3
O=C(O)/C=C/CCCCCCCC(=O)O | 10.6
COc1ccc(-c2oc(NC(=O)Cc3ccc(OC)c(OC)c3)c(C#N)c2-c2ccc(OC)cc2)cc1 | 39.6
COc1ccc(S(=O)(=O)N(C)CC(=O)Nc2c(C)cc(C)cc2C)cc1 | -9.3
Cc1ccc(S(=O)(=O)N(C)C[C@H]2Oc3ccc(NC(=O)Nc4cccc5ccccc45)cc3CC(=O)N([C@@H](C)CO)C[C@@H]2C)cc1 | 3.2
COc1ccc(CC(=O)Nc2ccc(O)cc2C(=O)O)cc1OC | -1.0
Cc1noc(C)c1NC(=O)Nc1ccc2c(c1)C(=O)N([C@@H](C)CO)C[C@@H](C)[C@H](CN(C)C(=O)Nc1ccccc1)O2 | -7.6
COc1ccc(NC(=O)Nc2ccc3c(c2)C(=O)N([C@H](C)CO)C[C@H](C)[C@H](CN(C)Cc2ccc(Oc4ccccc4)cc2)O3)cc1 | 56.2
C[C@@H]1CN([C@@H](C)CO)C(=O)c2cc(NS(=O)(=O)c3ccc(Cl)cc3)ccc2O[C@H]1CN(C)S(=O)(=O)c1cccs1 | 13.5
COc1cc(NC(=O)C(C)Oc2ccc(Cl)cc2Cl)c(OC)cc1Cl (stereo unspecified) | 8.5
Cc1nn(-c2nnc(C)c(=O)[nH]2)c(C)c1SCC(=O)Nc1ccc(F)cc1 | -21.8
CC(=O)C(O)(C(=O)OCc1ccc(O[C@@H]2O[C@H](CO)[C@@H](O)[C@H](O)[C@H]2O)cc1)C(C)C (stereo partly specified) | 37.1
COc1ccc(CN(C)C[C@@H]2Oc3ccc(NS(C)(=O)=O)cc3C(=O)N([C@@H](C)CO)C[C@H]2C)cc1 | 2.0
NC(=O)c1c(NC(=O)COc2ccc3ccccc3c2)sc2c1CCCCCC2 | 5.5
C[C@H](CO)N1C[C@H](C)[C@@H](CN(C)CC2CC2)Oc2c(NS(=O)(=O)c3ccc(Cl)cc3)cccc2C1=O | 12.5
Cc1noc(C)c1NC(=O)N(C)C[C@H]1Oc2ccc(NC(=O)CCN3CCOCC3)cc2CC(=O)N([C@@H](C)CO)C[C@H]1C | 4.0
CCN(CC)CCSc1nnc2c3ccccc3n(CC)c2n1 | -9.6
C[C@@H]1CN([C@@H](C)CO)C(=O)c2cc(NC(=O)CCCN(C)C)ccc2O[C@H]1CN(C)Cc1ccncc1 | 11.0
C[C@H]1CN([C@@H](C)CO)C(=O)c2cccc(NC(=O)C3CCCCC3)c2O[C@H]1CN(C)Cc1ccc(Cl)c(Cl)c1 | 49.2
C[C@@H]1CN([C@@H](C)CO)C(=O)Cc2cc(NC(=O)Nc3ccc4c(c3)OCO4)ccc2O[C@@H]1CN(C)CC1CCCCC1 | 88.2*
Cc1ccc(C(=O)NC(=S)NCc2ccco2)cc1[N+](=O)[O-] | 5.8
CC(C)C(NC(=O)c1ccc(O)cc1)C(=O)N1CCCC1C(=O)Nc1c(O)cccc1C(=O)O (stereo unspecified) | 19.9
Cc1noc(C)c1S(=O)(=O)Nc1ccc2c(c1)CC(=O)N([C@H](C)CO)C[C@H](C)[C@H](CN(C)C(=O)Nc1ccc3c(c1)OCO3)O2 | 23.8
C[C@H]1CN([C@@H](C)CO)C(=O)c2cccc(NS(=O)(=O)c3ccccc3)c2O[C@@H]1CN(C)C(=O)Nc1ccc(F)cc1 | 14.8
CCOC(=O)c1c(NC(=O)C2CC(c3ccccc3O)=NO2)sc2c1CCCC2 (stereo unspecified) | 30.1
C[C@H](CO)N1C[C@H](C)[C@H](CN(C)S(=O)(=O)c2cn(C)cn2)Oc2ccc(N(C)C)cc2CC1=O | -1.5
COc1cc(C(=O)NCc2ccccn2)c([N+](=O)[O-])cc1OC | 0.2
C[C@@H]1CN([C@H](C)CO)C(=O)Cc2cc(NC(=O)c3ccncc3)ccc2O[C@@H]1CN(C)Cc1ccc(C(=O)O)cc1 | 5.5
C[C@H](CO)N1C[C@H](C)[C@H](CN(C)Cc2ccc(C(=O)O)cc2)Oc2c(NS(C)(=O)=O)cccc2C1=O | -15.0
Cc1noc(C)c1NC(=O)N(C)C[C@H]1Oc2ccc(NC(=O)C3CC3)cc2C(=O)N([C@@H](C)CO)C[C@H]1C | -19.4
C[C@H](CO)N1C[C@H](C)[C@@H](CN(C)Cc2ccc(C(F)(F)F)cc2)Oc2c(NS(C)(=O)=O)cccc2C1=O | 22.4
COc1ccc(OCC(=O)Nc2ccc3nn(-c4ccc(Cl)cc4)nc3c2)cc1 | -12.8
Cc1cc(O)cc(=O)n1Cc1cccnc1 | 7.5
CC(=O)Nc1ccc(NC(=O)CSc2nnc(-c3ccc(N)cc3)n2C)cc1 | 1.4
C[C@H](CO)N1C[C@H](C)[C@@H](CN(C)C(=O)Nc2cccc3ccccc23)Oc2c(NC(=O)C3CC3)cccc2C1=O | 8.6
C[C@@H]1CCCCO[C@@H](CN(C)S(=O)(=O)c2ccccc2)[C@@H](C)CN([C@H](C)CO)C(=O)c2cc(NC(=O)Cc3ccccc3)ccc2O1 | 35.7
Cc1ccc(NC(=O)c2ccco2)c(NC(=O)CCN2C(=O)c3ccccc3C2=O)c1 | -25.0
CS(=O)(=O)N(CC(=O)Nc1ccccc1C(=O)N1CCOCC1)c1ccc(I)cc1 | -11.2
Cc1ccc(S(=O)(=O)Nc2cccc3c2O[C@@H](CN(C)Cc2ccc(C(=O)O)cc2)[C@@H](C)CN([C@@H](C)CO)C3=O)cc1 | -6.4
CC1(C)NC(=S)N(c2ccccc2)N1 | 30.6
Cc1noc(C)c1NC(=O)N(C)C[C@H]1Oc2c(cccc2N(C)C)C(=O)N([C@@H](C)CO)C[C@@H]1C | -28.8
Cc1ccc(S(=O)(=O)Nc2ccc3c(c2)C(=O)N([C@@H](C)CO)C[C@H](C)[C@H](CN(C)S(=O)(=O)c2cn(C)cn2)O3)cc1 | -13.0
COc1ccc(S(=O)(=O)N(C)C[C@@H]2Oc3ccc(NC(=O)C4CCCCC4)cc3C(=O)N([C@@H](C)CO)C[C@H]2C)cc1 | 18.9
C[C@@H]1CC[C@]2(C(=O)O)CC[C@]3(C)C(=CCC4[C@@]5(C)C[C@@H](O)[C@@H](O)C(C)(C)C5CC[C@]43C)C2[C@]1(C)O (stereo partly specified) | 36.2
C[C@@H]1CN([C@@H](C)CO)C(=O)Cc2cc(NC(=O)Nc3ccc(F)cc3)ccc2O[C@@H]1CN(C)S(=O)(=O)c1cn(C)cn1 | -9.4
CCc1ccccc1N(CC(=O)O)S(C)(=O)=O | 15.3
C[C@H](CO)N1C[C@H](C)[C@H](CN(C)C(=O)Nc2ccc(F)cc2)Oc2c(NC(=O)Nc3cccc4ccccc34)cccc2C1=O | 123.8*
COc1ccc(N(C(=O)c2ccccc2)S(=O)(=O)c2cc(OC)ccc2OC)cc1 | 14.0
CCOc1ccc(NC(=O)CSc2nc3sc(C)c(C)c3c(=O)n2-c2ccc(C)cc2)cc1 | 37.4
CCOc1ccccc1C(=O)Oc1c(S(=O)(=O)c2ccc(C)cc2)c(C)nn1-c1ccccc1 | 103.3*
C[C@H]1CN([C@@H](C)CO)C(=O)Cc2cc(NC(=O)Cn3cnnn3)ccc2O[C@@H]1CN(C)Cc1ccncc1 | 2.9
COc1c(-c2ccc(O)cc2)oc2cc(O)cc(O)c2c1=O | 41.4
N#Cc1c(NC(=O)Cn2cnc3ccccc3c2=O)sc2c1CCC2 | 14.1
CC1OC(O[C@H]2CC[C@@]3(C)C(CC[C@]4(C)C3CC=C3[C@@H]5CC(C)(C)C[C@@H](O)[C@]5(C)CC[C@]34C)[C@@]2(C)CO)C(OC2OC(C(=O)O)C(O)C(O)C2OC2OCC(O)C(O)C2O)C(O)C1O (stereo partly specified) | 3.9
COC(=O)c1cc(NC(=O)CN2C(=O)c3cccc4cccc2c34)ccc1Cl | 10.4
C[C@H](CO)N1C[C@H](C)[C@@H](CN(C)Cc2ccccc2)Oc2ccc(NC(=O)Nc3ccc4c(c3)OCO4)cc2C1=O | 1.0
O=C(OCc1cccc([N+](=O)[O-])c1)c1ccc(NC(=O)c2ccco2)cc1 | 2.2

Other records:
SMILES | NOMO-1 viab
C[C@H]1CN([C@@H](C)CO)C(=O)Cc2cc(NS(=O)(=O)c3cn(C)cn3)ccc2O[C@H]1CN(C)Cc1ccc(Cl)c(Cl)c1 | -1.8
COC(=O)CCSc1nc(SC)nc2sc3c(c12)CC(C)(C)OC3 | 18.1
COc1ccc(C(=O)n2nc3c(c2-c2ccc(OC)cc2)COC(C)(C)C3)cc1 | -3.5
C[C@H]1CN([C@@H](C)CO)C(=O)Cc2cc(NS(=O)(=O)c3ccc(F)cc3)ccc2O[C@@H]1CN(C)C | -0.1
C[C@H](CO)N1C[C@H](C)[C@H](CN(C)C(=O)Nc2ccccc2)Oc2ccc(N(C)C)cc2C1=O | 12.5
COc1ccc(S(=O)(=O)N(C)C[C@@H]2Oc3c(NC(=O)CCCCCC(=O)Nc4ccccc4N)cccc3C(=O)N([C@@H](C)CO)C[C@@H]2C)cc1 | 61.3
CCc1ccc(OCC(=O)Nc2ccccc2C(=O)OC)c(Br)c1 | -26.1
C[C@H]1CN([C@@H](C)CO)C(=O)c2cc(NC(=O)c3ccncc3)ccc2O[C@H]1CN(C)S(=O)(=O)c1ccc(Cl)cc1 | 33.5
Cc1ccc(S(=O)(=O)N(C)C[C@H]2Oc3c(NC(=O)Nc4ccccc4)cccc3C(=O)N([C@H](C)CO)C[C@H]2C)cc1 | 2.7
COc1ccc(C2Oc3c(OC)cc(/C=C/COC4OC(CO)C(O)C(O)C4O)cc3C2CO)cc1OC (stereo unspecified) | 17.6
COc1ccc(S(=O)(=O)Nc2ccc3c(c2)CC(=O)N([C@H](C)CO)C[C@H](C)[C@H](CN(C)C(=O)Nc2cccc4ccccc24)O3)cc1 | 8.7
COc1ccc(CN(C)C[C@@H]2Oc3c(NS(C)(=O)=O)cccc3C(=O)N([C@H](C)CO)C[C@H]2C)cc1 | -6.6
C[C@@H]1CN([C@H](C)CO)C(=O)c2cc(NC(=O)Cn3cnnn3)ccc2O[C@@H]1CN(C)CC1CC1 | 2.6
C[C@@H]1CN([C@H](C)CO)C(=O)Cc2cc(NC(=O)Nc3ccc4c(c3)OCO4)ccc2O[C@@H]1CN(C)Cc1ccc(C(=O)O)cc1 | 18.1
C[C@H]1CN([C@@H](C)CO)C(=O)c2cccc(NC(=O)Nc3ccc(C(F)(F)F)cc3)c2O[C@H]1CN(C)Cc1ccccc1 | 40.9
C[C@H](CO)N1C[C@H](C)[C@@H](CN(C)Cc2ccc(C(F)(F)F)cc2)Oc2c(NC(=O)C3CCCCC3)cccc2C1=O | 99.4*
COc1ccc(OC(C)c2nc(-c3cccnc3)no2)cc1 (stereo unspecified) | -10.0
COC(=O)C1=C(C)NC(=S)NC1c1cccc(OC)c1OCc1ccccc1 (stereo unspecified) | 9.3
C[C@@H]1CN([C@@H](C)CO)C(=O)c2cc(NC(=O)Nc3ccccc3)ccc2O[C@H]1CN(C)S(=O)(=O)c1ccc(Cl)cc1 | 22.3
COc1ccc(S(=O)(=O)N(C)C[C@H]2Oc3c(NS(C)(=O)=O)cccc3C(=O)N([C@@H](C)CO)C[C@@H]2C)cc1 | -1.2

Sorted by SMILES length (highest first): part of the list above.
SMILES | NOMO-1 viab
C[C@@H]1CN([C@H](C)CO)C(=O)Cc2cc(NC(=O)Nc3ccc4c(c3)OCO4)ccc2O[C@@H]1CN(C)Cc1ccc(C(=O)O)cc1 | 18.1
C[C@H]1CN([C@@H](C)CO)C(=O)Cc2cc(NS(=O)(=O)c3cn(C)cn3)ccc2O[C@H]1CN(C)Cc1ccc(Cl)c(Cl)c1 | -1.8
C[C@@H]1CN([C@@H](C)CO)C(=O)c2cc(NC(=O)Nc3ccccc3)ccc2O[C@H]1CN(C)S(=O)(=O)c1ccc(Cl)cc1 | 22.3
C[C@H](CO)N1C[C@H](C)[C@@H](CN(C)Cc2ccc(C(F)(F)F)cc2)Oc2c(NC(=O)C3CCCCC3)cccc2C1=O | 99.4*
C[C@H]1CN([C@@H](C)CO)C(=O)Cc2cc(NS(=O)(=O)c3ccc(F)cc3)ccc2O[C@@H]1CN(C)C | -0.1
C[C@H](CO)N1C[C@H](C)[C@H](CN(C)C(=O)Nc2ccccc2)Oc2ccc(N(C)C)cc2C1=O | 12.5
COc1ccc(C2Oc3c(OC)cc(/C=C/COC4OC(CO)C(O)C(O)C4O)cc3C2CO)cc1OC (stereo unspecified) | 17.6
COc1ccc(C(=O)n2nc3c(c2-c2ccc(OC)cc2)COC(C)(C)C3)cc1 | -3.5
COC(=O)CCSc1nc(SC)nc2sc3c(c12)CC(C)(C)OC3 | 18.1
CCc1ccc(OCC(=O)Nc2ccccc2C(=O)OC)c(Br)c1 | -26.1

New compounds follow
SMILES | NOMO-1 viab
C[C@H](CO)N1C[C@H](C)[C@H](CN(C)Cc2ccc(C(=O)Nc3ccccc3N)cc2)Oc2ccc(NC(=O)Nc3ccccc3)cc2CC1=O | 140.7*
C[C@H]1CN([C@@H](C)CO)C(=O)c2cccc(N(C)C)c2O[C@@H]1CN(C)S(=O)(=O)c1ccc(Cl)cc1 | 16.8
C[C@@H]1CN([C@H](C)CO)C(=O)c2cccc(NS(C)(=O)=O)c2O[C@H]1CN(C)S(=O)(=O)c1ccc(Cl)cc1 | -2.9
CC(=O)Nc1ccc(-c2nnc(SCC(=O)NC3CCCCC3)n2C)cc1 | 4.6
Cn1c(=O)c2c(nc(OCc3cccnc3)n2Cc2c(F)cccc2Cl)n(C)c1=O | 6.1
CC(=O)Cc1ccccc1OCC(=O)O | 11.2
Cc1noc(C)c1S(=O)(=O)N(C)C[C@H]1Oc2ccc(NC(=O)CCC(F)(F)F)cc2CC(=O)N([C@@H](C)CO)C[C@@H]1C | -15.9
CC1(C)CC(=O)C=C(Sc2nc3ccccc3o2)C1 | 119.7*
